MARV entry inh = blocks Marburg virus binding to or entry into cells; Potency, µM (doses to about 37.8 µM), for inactives: top-dose activity change, negative = inhibition, hits mostly inhibitors; Marburg virus pseudotyped entry inhibition, cell reporter; control for the full effect not named in the record; about a third of the inactives were read at about 46 µM; AID 540276; 1.8% of 300,000 active; active = well fitted inhibition curve with a large enough effect; inconclusive = small, poorly fitted or top-dose-only effect, or effect the other way; inactive = flat fitted curve, though single readings scatter; tested in HEK293 cells; about a fifth of its hits are not listed in these tables; note: % is set by controls: 0 for no effect and ±100 for the full control effect; luciferase read-out
LASV entry inh = blocks Lassa virus binding to or entry into cells | Lassa virus pseudotype entry inhibition, cell reporter; control for the full effect not named in the record | Potency, µM (series often up to 37.9 µM), inactives show top-dose activity change, negative = inhibition, actives largely listed as inhibitors | 1.2% of 300,000 active; active means well fitted inhibition curve with a large enough effect; inconclusive means small, poorly fitted or top-dose-only effect, or effect the other way; inactive means flat fitted curve, though single readings scatter; tested in HEK293 cells; note: % is set by controls: 0 for no effect and ±100 for the full control effect; nearly all actives have a fitted effect of over 50% in size; luciferase read-out
Cruzain noTriton = cruzain (T. cruzi) inhibition without detergent; P25779; Potency, µM, without a hit: max response, negative = inhibition, actives largely listed as inhibitors; purified cruzain, Z-FR-AMC fluorescence, no detergent; 2.3% of 200,000 active;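 note: plate controls were enzyme without inhibitor for no effect and buffer without enzyme for full effect; nearly all actives have a fitted effect of over 40% in size; top concentration of the series not given in the record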
Target sequence (P25779 123-467 limits assumed): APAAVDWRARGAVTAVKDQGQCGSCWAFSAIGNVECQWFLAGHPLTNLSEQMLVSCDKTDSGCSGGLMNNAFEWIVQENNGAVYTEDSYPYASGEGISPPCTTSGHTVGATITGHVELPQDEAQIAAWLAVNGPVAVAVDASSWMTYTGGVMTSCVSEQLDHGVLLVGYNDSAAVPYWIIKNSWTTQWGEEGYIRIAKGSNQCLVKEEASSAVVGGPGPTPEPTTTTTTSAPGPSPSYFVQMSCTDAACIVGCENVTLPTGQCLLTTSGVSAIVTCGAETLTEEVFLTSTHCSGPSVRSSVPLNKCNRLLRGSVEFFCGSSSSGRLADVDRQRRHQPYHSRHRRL
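Purified cruzain at 1.5 nM, pre-incubated 15 min with compound at room temperature in 100 mM sodium acetate pH 5.5, 5 mM DTT, 0.00005% Triton X-100. Reaction started with 2 uM Z-FR-AMC; AMC fluorescence increase over 60 s gives rate.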
RE007 growth inh = less growth of the S. pombe RE007 Vpr strain; S. pombe RE007 Vpr strain, BacTiter-Glo ATP luminescence, 24 h; control for the full effect not named in the record; Potency, µM (highest dose often 92.2 µM), without a hit: top-dose activity change, negative = less growth; 0.21% of 360,000 active; AID 651644; active = well fitted falling curve with a large enough effect; inconclusive = small, poorly fitted or top-dose-only effect; inactive = no such curve, though single readings can be large or run the other way;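 note: % is set by controls: 0 for no effect and ±100 for the full control effect; nearly all actives have a fitted effect of over 50% in size; the assay follows cell death caused by Vpr and the record does not say whether a fall means rescue or toxicity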
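Fission yeast RE007 carrying one integrated HIV-1 vpr copy, seeded at OD 0.01 in PMG+AL medium with 23 nL pinned compound. Grown 24 h at 30 degrees; viability read by BacTiter-Glo luminescence after 5 min.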
Cruzain Triton = cruzain (T. cruzi) inhibition with detergent; 0.43% of 200,000 active; P25779; purified cruzain, Z-FR-AMC fluorescence, 0.01% Triton; AID 1478; Potency, µM, inactives show max response, negative = inhibition, hits mostly inhibitors;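 note: plate controls were neutral wells for no effect and buffer without enzyme for full effect; nearly all actives have a fitted effect of over 40% in size; top concentration of the series not given in the record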
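Z-FR-AMC hydrolysis (2 uM substrate) by cruzain (1.5 nM) monitored kinetically at ex 360/em 450 nm after 15 min room-temperature compound exposure; 0.01% Triton X-100, pH 5.5, 5 mM DTT.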
NS1 inh = blocks influenza NS1 protein function; Potency, µM (top dose mostly 46.1 µM), inactives show top-dose activity, positive = more growth; 0.4% of 270,000 active; AID 2326; S. cerevisiae slowed by influenza A NS1, growth recovery by OD600; active means well fitted rising curve with a large enough effect; inconclusive means small, poorly fitted or top-dose-only effect; inactive means no such curve, though single readings can be large or run the other way; note: nearly all actives have a fitted effect of over 50% in size
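S. cerevisiae expressing influenza A NS1, grown in glucose, washed, then diluted 1:100 into pH 6.0 -URA galactose medium with 23 nl compound. Growth recovery read as OD600; NS1-free strain serves as control.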
2A StopGo = lowers the luciferase signal of an FMDV 2A StopGo reporter; human cells with a luciferase reporter of 2A StopGo recoding; control for the full effect not named in the record; Potency, µM (doses to about 57.9 µM), inactives show at the top dose signal change, negative = less light; 1.2% of 410,000 active; active = well fitted falling curve with a large enough effect; inconclusive = small, poorly fitted or top-dose-only effect; inactive = no such curve, though single readings can be large or run the other way; tested in HEK293T cells; note: % is set by controls: 0 for no effect and ±100 for the full control effect; nearly all actives have a fitted effect of over 45% in size; luciferase light after 4 h
SARS PLP yeast = SARS-CoV PLP inhibition in yeast. Potency, µM (doses to about 32.9 µM), inactives show at the highest dose activity, positive = growth rescue. 0.19% of 330,000 active. S. cerevisiae expressing SARS-CoV PLpro, growth rescue; control for the full effect not named in the record; active means well fitted rising curve with a large enough effect; inconclusive means small, poorly fitted or top-dose-only effect; inactive means no such curve, though single readings can be large or run the other way; note: 0% is about no effect; nearly all actives have a fitted effect of over 55% in size; growth read by luminescence after 48 h
The depositor's hits bear a star; ? = inconclusive; nt = no result given; [ ] = dose if it differs, or a comment. Unless noted, calls come from the whole dose curve; as a rule, active = well fitted curve in the direction sought with a large enough effect; inconclusive = small, poorly fitted or top-dose-only effect, or another doubt; inactive = no such curve, though single readings can be large; an effect the other way counts as inactive or inconclusive. Potency is the fitted concentration of half-maximal effect. Outcome played no part in choosing rows. About 4.8% of those tested had a hit in this group.

The line under a structure holds: MARV entry inh, LASV entry inh, Cruzain noTriton, RE007 growth inh, Cruzain Triton, NS1 inh, 2A StopGo, SARS PLP yeast
COc1ccc(Nc2nc(-c3ccccc3)cs2)cc1
  ?, 20.6µM*, -15.9%, 1.5%, -4.2%, -2.1%, -6.3%, -9.6%
COc1ccc(C(=O)OCC(=O)Nc2cccc(C(C)=O)c2)cc1OC
  8.7%[46.1 µM], ?, nt, 2.2%, nt, -5.4%, -24.8%, -0.6%
Cc1ccc(-n2c(O)c(C=NC3CCS(=O)(=O)C3)c3ccccc3c2=O)c(C)c1 (stereo not given)
  2.8%[46.1 µM], -7.3%, nt, -20.4%, nt, -4.0%, -7.2%, -0.5%
Cc1ccc(CNCCc2ccccc2F)cc1
  ?, 5.5%, 1.9%, -4.7%, 3.3%, -12.9%, -11.9%, 11.7%
CC(OC(=O)CNC(=O)C12CC3CC(CC(C3)C1)C2)C(=O)Nc1ncc(Cl)cc1Cl (stereo not given)
  -3.5%, -16.3%[14.3 µM], 11.5%, -11.9%, -9.6%, -5.9%, 10.2%, -3.7%
Cc1cc(C)cc(N2C(=O)N(c3ccccc3C)C3CS(=O)(=O)CC32)c1 (stereo not given)
  -0.1%, 23.7%, -0.2%, -0.9%, -1.9%, -7.0%, nt, 2.7%
COc1ccc(CC(=O)Nc2cc(S(=O)(=O)N3CCCCC3)ccc2C)cc1
  -20.2%, ?, nt, 1.1%, nt, nt, 16.5%, -1.6%
CCOc1ccc(CNCCSc2nnnn2C)cc1OC
  16.1%[46.1 µM], -14.8%[46.1 µM], 6.1%, nt, 0.3%, nt, -1.6%, nt
Cc1nc(SCC(=O)Nc2ccc3c(c2)OCCO3)nc(C)c1C
  ?, 11.6%, nt, -5.2%, nt, nt, 18.4%, -0.5%
COc1c(Cl)cc(C(=O)NCc2ccco2)cc1Cl
  nt, nt, nt, 7.1%, nt, -13.4%, 2.7%, -4.6%
COc1ccc(CCNc2ncnc3c2c(-c2ccccc2)cn3-c2ccc(Cl)cc2)cc1OC
  nt, -16.1%[46.1 µM], 6.8%, nt, 0.9%, nt, ?, nt
CC(=O)n1nc(-c2ccc(C)cc2)nc1NCc1ccc(F)cc1
  10.6%[46.1 µM], -2.0%, nt, 12.3%, nt, -4.5%, 43.6%[activator], ?
COc1ccc(C(CNC(=O)c2ccc(-c3ccccc3)cc2)N(C)C)cc1OC (stereo not given)
  ?, ?, nt, -7.0%, nt, -11.1%, 16.7%, 1.2%
COc1ccc(NCc2cc3cc4c(cc3n(CC(=O)Nc3cc(C)cc(C)c3)c2=O)OCO4)cc1
  nt, 3.6%[46.1 µM], ?, nt, -5.0%, nt, -2.9%, nt
Cc1cc(N2CCCCC2)nc(SCC(=O)c2ccccc2)n1
  ?, -25.0%, -3.2%, -11.4%, -0.2%, -16.4%, 23.2%, 2.5%
Cc1ccc(S(=O)(=O)N(CC(=O)N/N=C/c2ccccc2C(=O)O)c2cc(Cl)cc(Cl)c2)cc1
  ?, ?, nt, 8.8%, nt, 7.9%, -12.5%, -0.1%
CN(C)S(=O)(=O)c1cccc(NC(=O)COC(=O)CCC(=O)c2cccs2)c1
  -9.6%[46.1 µM], nt, nt, -4.7%, nt, nt, -6.7%, -0.3%
Cc1nonc1OCCNc1ccc([N+](=O)[O-])cc1[N+](=O)[O-]
  ?, -7.8%, -5.4%, -8.1%, -7.8%, 12.1%, 0.0%, 10.2%
Cc1ccc(Cl)cc1N1CCN(S(=O)(=O)c2c(C(=O)N3CCOCC3)c(C)n(C)c2C)CC1
  -7.1%[46.1 µM], -13.2%[46.1 µM], nt, -1.8%, nt, 10.1%, -9.5%, 0.0%
COc1cccc(C(=O)Nc2nc(-c3nnn(-c4cc(C)ccc4C)c3C)ns2)c1
  nt, 24.2%[46.1 µM], -13.2%, nt, -2.4%, nt, ?, nt
CCCN1CC(O)=C(C#N)C1=O
  ?, 20.1%, nt, -10.1%, nt, nt, 13.7%, -2.3%
COc1cccc(CN(C)CC(=O)Nc2cccc3ccccc23)c1
  ?, 1.0%, nt, -17.1%, nt, nt, -17.9%, -6.5%
CCCN1CCN(CCCNC(=O)c2ccc3nc(Cc4ccccc4)oc3c2)CC1
  nt, -1.7%[46.1 µM], 1.8%, nt, 0.5%, nt, 0.0%, nt
Cc1ccsc1C(=O)C1CCCN(Cc2cc(C(C)C)n[nH]2)C1 (stereo not given)
  -10.7%[46.1 µM], -0.9%, nt, -7.5%, nt, -3.4%, -7.7%, 0.0%
Cc1c(CC(=O)NCc2ccccc2Cl)c(=O)oc2cc(O)ccc12
  ?, 4.3%[46.1 µM], ?, nt, -28.6%, nt, 39.3%[activator], nt
Cc1c(-c2cccc(Cl)c2)nc2ccccc2c1C(=O)OCC(=O)Nc1ccc2c(c1)OCO2
  ?, ?, -81.0%, ?, -2.8%, 10.3%, ?, 0.5%
COc1ccc(CNC(=O)CCC(=O)N2C[C@H]3C[C@H](C2)c2cccc(=O)n2C3)cc1
  nt, nt, nt, -9.5%, nt, 4.6%, -18.7%, 8.1%
O=C(CN1CCOCC1)NNC(=O)c1ccc([N+](=O)[O-])cc1
  nt, nt, nt, -10.0%, nt, -3.4%, -13.3%, 1.6%
Cc1c(Cl)ccc2c(C(=O)O)cc(-c3ccccc3)nc12
  nt, nt, nt, 0.2%, nt, -47.5%, -9.0%, -3.4%
Cc1ccc(C)c2sc(NC(=O)c3nc4ccccc4s3)nc12
  -5.1%, 8.9%, 10µM*, 1.0%, -1.2%, 19.0%, -1.3%, -2.5%
O=[N+]([O-])c1cc(C(F)(F)F)ccc1N1CCN(S(=O)(=O)c2ccc3ccccc3c2)CC1
  11.2µM*, -19.9%, 25.1µM*, -6.0%, 0.3%, 25.2%, ?, -1.9%
CCOC(=O)C1C(=O)CC(C)(O)C(C(=O)OCC)C1c1ccccc1OC (stereo not given)
  1.7%, -5.3%, 5.5%, -6.1%, 1.8%, -2.8%, -5.1%, ?
COC(=O)c1ccc(N2NC(=O)/C(=C/c3cc(OC)c(OC)c(OC)c3)C2=O)cc1
  nt, nt, nt, -11.4%, nt, 5.3%, ?, 3.0%
O=S(=O)(Nc1ccc(Cl)cn1)c1ccc2c(c1)OCCO2
  16.2%, 4.1%, nt, -0.2%, nt, nt, 106.4%[activator], -1.2%
COc1ccc2c(Cl)c(C(=O)NCC3CCCO3)sc2c1Cl (stereo not given)
  2.6%, -0.1%, -10.6%, nt, -5.7%, -10.6%, nt, 10.6%
CCC(C)(C)NC(=O)CN(C(=O)CCC(=O)Nc1nccs1)c1cccc(C)c1C
  -9.5%, 1.2%, nt, -6.5%, nt, 18.1%, -6.7%, 1.0%
O=C1C(=O)N(CCN2CCOCC2)C(c2ccccn2)/C1=C(/O)c1ccc(Cl)cc1 (stereo not given)
  1.8%, 6.6%, 9.5%, -8.7%, -6.1%, 6.0%, 3.2%, -16.1%
COc1ccc(NC2CCCN(C(=O)C3(C)CCCCC3)C2)cc1OC (stereo not given)
  nt, nt, nt, -3.9%, nt, 26.0%, -21.7%, 18.2%
COc1ccc(CCn2c(=O)c3cccnc3n(CC(=O)Nc3c(C)cc(C)cc3C)c2=O)cc1OC
  -3.2%[46.1 µM], nt, 10.5%, nt, 0.7%, nt, -17.5%, nt
CCc1ccc(NC(=O)Nc2cc(C(=O)NCC3CCCO3)ccc2N2CC3CC(C2)c2cccc(=O)n2C3)cc1 (stereo not given)
  nt, nt, nt, -9.6%, nt, 8.0%, -8.3%, 10.2%
O=C(Nc1cc([N+](=O)[O-])ccc1C(=O)NCCN1CCOCC1)c1ccccc1
  14.1%, 4.3%, nt, 3.4%, nt, 3.3%, -16.2%, -3.7%
CN1CCN(c2ccc([N+](=O)[O-])c(N/N=C3\CN4CCC3CC4)c2)CC1
  ?, ?, ?, 10.2%, ?, 5.2%, -8.2%, 4.7%
COC(=O)c1ccccc1NC(=O)COC(=O)[C@H](C)NC(N)=O
  -0.3%[46.1 µM], -16.3%, nt, -1.2%, nt, 1.1%, -8.2%, -0.6%
NC(=O)CN1C(=O)NC2(CCCc3sccc32)C1=O (stereo not given)
  7.9%[46.1 µM], 0.3%, nt, 8.1%, nt, -5.5%, 21.3%, -0.6%
CCNS(=O)(=O)c1ccc(CCC(=O)Nc2ccc3c(c2)OCO3)cc1
  ?, 18.4%, nt, 3.1%, nt, 13.7%, -0.7%, -6.1%
Cc1c(C(=O)N2CCN(c3ccccn3)CC2)oc2c1C(=O)CC(C)(C)C2
  nt, nt, nt, -1.1%, nt, -4.5%, ?, ?
Cc1cc(-c2n[nH]c(=S)n2/N=C/c2cccc([N+](=O)[O-])c2)n[nH]1
  21.3%, -3.1%, -20.0%, 18.8%, -3.0%, ?, 0.0%, -1.9%
CN(C)c1ccc(CC(=O)c2nc3ccccc3s2)cc1
  3.1%, 2.7%, 20µM*, -11.6%, -4.3%, 3.1%, -9.9%, 7.6%
COc1ccc(-c2noc(CSc3nnc(-c4ccncc4)n3-c3ccc(C)cc3)n2)cc1OC
  2.5%[46.1 µM], -9.7%[46.1 µM], 13.6%, nt, -2.8%, nt, -21.5%, nt
Cc1onc(-c2c(Cl)cccc2Cl)c1C(=O)N1CCN(c2ccc(F)cc2)CC1
  -20.3%[46.1 µM], ?, nt, -12.8%, nt, 17.6%, ?, -3.9%
O=C(NCCN1CCOCC1)c1cc(-c2ccccc2)on1
  12.1%, 8.0%, -5.3%, 14.2%, -2.2%, -10.1%, nt, -0.9%
COc1ccc(/C=C/C(=O)Nc2ccccc2)cc1OC
  4.2%[46.1 µM], 16.1%, nt, -1.4%, nt, nt, 66.8%[activator], -2.1%
COc1ccc(-c2nnc(NC(=O)Cc3ccccc3)o2)cc1
  nt, nt, nt, -13.9%, nt, -2.7%, 10.1%, 1.5%
CCOC(=O)N1CCN(C(=O)c2ccccc2NC(=O)c2ccc(F)cc2)CC1
  -10.0%, 11.0%, -10.7%, 2.6%, 4.1%, -7.8%, 8.4%, 16.1%
COc1cccc(N(CC(=O)Nc2ccccc2C(=O)N2CCCC2)S(C)(=O)=O)c1
  -2.2%[46.1 µM], ?, nt, -0.8%, nt, 0.6%, 5.2%, -0.3%

Source: PubChem BioAssay (National Center for Advancing Translational Sciences (NCATS))
